Assay outcomes (PubChem BioAssay)
HPGD inh = inhibitors of human 15-hydroxyprostaglandin dehydrogenase (HPGD); Potency, µM, for the others: top-dose activity change, negative = inhibition, actives largely listed as inhibitors; AID 894; 150,000 compounds, 4.3% hits; purified HPGD, NADH fluorescence kinetic, PGE2 substrate; active = well fitted inhibition curve with a large enough effect (not every such curve was filed as active); inconclusive = small, poorly fitted or top-dose-only effect, or another doubt; inactive = no such curve, though single readings can be large or run the other way;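 note: top concentration of the series not given in the record; plate controls included wells without enzyme; inactives centre near -10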
Target sequence (P15428 whole entry, looked up): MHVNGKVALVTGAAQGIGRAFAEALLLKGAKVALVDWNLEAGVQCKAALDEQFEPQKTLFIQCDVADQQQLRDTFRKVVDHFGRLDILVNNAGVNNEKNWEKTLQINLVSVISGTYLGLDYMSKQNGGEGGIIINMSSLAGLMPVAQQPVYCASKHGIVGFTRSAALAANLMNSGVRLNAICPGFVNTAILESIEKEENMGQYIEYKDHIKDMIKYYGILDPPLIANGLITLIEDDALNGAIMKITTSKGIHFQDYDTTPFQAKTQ
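20 nM HPGD preincubated 15 min at room temperature with compound in 50 mM Tris-HCl pH 8, 0.01% Tween 20. Started with 1 mM NAD+ and 30 uM prostaglandin E2; NADH fluorescence (360/450 nm) read 5 times over 30-s intervals, last minus first.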
* = called active by the depositor; ? = inconclusive. % is set by controls: 0 for no effect and ±100 for the full control effect; potency is the fitted concentration of half-maximal effect.

SMILES | HPGD inh
CCCCN=C1NC(=O)C(CC(=O)NCCc2ccc(OC)cc2)S1 (configuration not stated) | -18%
Cc1ccc(C(=O)CSc2nnc(-c3cccnc3)n2N)cc1 | -3%
CCCCCC(=O)NC(=S)Nc1cccc(C(C)=O)c1 | 14µM*
COC(=O)c1ccccc1S(=O)(=O)N(Cc1cc2cc3c(cc2[nH]c1=O)OCO3)C1CCCCC1 | -11%
Cc1noc(C(=O)Nc2c(C)nn(Cc3ccccc3)c2C)c1Cl | -10%
CC(C)(C)c1ccc(C(=O)NNC(=O)c2ccc(Cl)cc2)cc1 | -3%
Cn1c(CNc2ccccc2)nc2ccccc21 | -14%
COCCCNC(=S)NCCCNc1nc2cc3c(cc2cc1C#N)OCO3 | ?
Cc1nc(-c2ccccc2)sc1-c1nc(-c2ccccc2)ncc1S(=O)(=O)c1ccccc1 | ?
Cc1cc(=O)n(C)c(=O)n1CC(=O)N1CCCCCC1 | -10%
CCCCOc1ccc(NC(=O)C2OC3OC(C)(C)OC3C3OC(C)(C)OC23)cc1 (configuration not stated) | -6%
Nc1nc(SCC(=O)NCCCO)nc2sc3c(c12)CCC3 | -19%
COc1ccccc1C(=O)ON=C1c2ccccc2-c2ccccc21 | ?
O=C(Cn1nc(Cc2cccnc2)c2ccccc2c1=O)N1CCN(c2ccccn2)CC1 | -15%
c1ccc(-c2csc(-c3nc4ccccc4[nH]3)n2)cc1 | ?
O=C(N[C@@H](CO)[C@@H](O)c1ccc([N+](=O)[O-])cc1)C(Cl)Cl | -3%
CC(C)c1cc(C(N)=O)c(NC(=O)c2cccc(COc3ccc(Br)cc3)c2)s1 | ?
Clc1ccc(CSc2nnc(-c3c[nH]c4ccccc34)o2)cc1 | -4%
Cc1ccccc1NC(=S)N(CCCN1CCOCC1)Cc1cccs1 | 9%
O=[N+]([O-])c1ncn(Cc2c(Cl)cccc2Cl)n1 | -12%
CC(=O)Nc1cccc(N(C)S(C)(=O)=O)c1 | -3%
O=S(=O)(NCc1cccnc1)c1cccc2cccnc12 | -5%
CC(Cc1cccs1)NC(=O)Nc1ccccc1 (configuration not stated) | -18%
COc1ccc(CCNC(=O)CCn2c(SCC#N)nc3ccccc3c2=O)cc1OC | -2%
Cc1ccc(C(C(=O)NC(C)(C)C)N(Cc2ccco2)C(=O)Cn2nnc(-c3cccs3)n2)cc1 (configuration not stated) | -1%
Cc1cccc(-c2nc3c(c(SCC(N)=O)n2)CCCC3)c1 | -8%
COc1ccc(Nc2cc(C(=O)NCCCN3CCOCC3)c3ccccc3n2)cc1OC | 1%
CCCCCn1c(-c2ccco2)nc2nc3ccccc3nc21 | ?
COc1ccc2nc3c(c(-c4ccccc4)c2c1)CCC3 | -22%
CC1CCCN(c2c([N+](=O)[O-])c(=O)oc3ccccc23)C1 (configuration not stated) | -17%
O=c1[nH]ncc(N2CCCCC2)c1Cl | -9%
COc1ccc(CNC(=O)C2CCCN2S(=O)(=O)c2ccc(Cl)cc2)cc1 (configuration not stated) | -15%
Cc1cc(C)c(S(=O)(=O)N2CCN(c3ccc([N+](=O)[O-])c(-n4nc(C)cc4C)c3)CC2)c(C)c1 | -12%
COC(=O)c1c(NC(=O)C2C3CCC(O3)C2C(=O)O)sc2c1CCCCCC2 (configuration not stated) | -27%
CCCCn1c(SCC(=O)NC(C)CC)nc2ccc(N3CCOCC3)cc2c1=O (configuration not stated) | ?
Cc1ccccc1NC(=S)NC(NC(=O)N(C)C)C(Cl)(Cl)Cl (configuration not stated) | -24%
Cc1ccc(Cn2c(CN3CCN(C(=O)c4ccco4)CC3)nc3c2c(=O)n(C)c(=O)n3C)cc1 | -11%
O=C1CSC(c2ccc(Cl)cc2)N1 (configuration not stated) | -20%
COc1ccc(-c2csc(=Nc3c(C)n(C)n(-c4ccccc4)c3=O)n2C(C)(C)C)cc1 | -5%
CCOC(=O)c1cccc(NC(=O)CSc2nnnn2CC)c1 | -9%

Filtered by structure: the entries above containing a furan ring, fused or not (3)
SMILES | HPGD inh
Cc1ccc(C(C(=O)NC(C)(C)C)N(Cc2ccco2)C(=O)Cn2nnc(-c3cccs3)n2)cc1 (configuration not stated) | -1%
CCCCCn1c(-c2ccco2)nc2nc3ccccc3nc21 | ?
Cc1ccc(Cn2c(CN3CCN(C(=O)c4ccco4)CC3)nc3c2c(=O)n(C)c(=O)n3C)cc1 | -11%

The list continues.
SMILES | HPGD inh
COc1ccc(-n2c(O)c(Cc3ccccc3)c(=O)n3nc(-c4ccccc4)c(=O)cc23)cc1 | -16%
C=CCOC(=O)C1(C(NC(=O)OC)c2ccccc2)C(=O)Cc2ccccc21 (configuration not stated) | -9%
O=S(=O)(c1ccccc1)N1CCC2(CCCN(c3ccncc3)C2)CC1 | -1%
O=c1oc2ccccc2c(NCc2ccccc2)c1[N+](=O)[O-] | 25µM*
CN1CCN(CC(=O)N2c3ccccc3Sc3cc4ccccc4cc32)CC1 | 0%
O=C1OC(c2ccccc2)c2ccc3ccccc3c21 (configuration not stated) | -20%
Cc1[nH]c2c(C)cccc2c(=O)c1Br | -6%
COc1ccc(C2C(C#N)=C(N)Oc3cc4c(cc32)OCO4)cc1 (configuration not stated) | -4%
CNC(=O)N1CCN(C(=O)NC)CC1 | -4%
CCn1cc(C(=O)NCc2ccc3c(c2)OCO3)c(=O)c2ccc(C)nc21 | 0%
O=C(NC1CCCCC1)N1CCN(CCc2ccccc2)CC1 | -5%
N#CCCN1CCN(C(=S)c2ccc(-c3ccc(Cl)c(Cl)c3)o2)CC1 | ?
O=C(NC1CC2CCC(C1)N2C(=O)NCc1ccccc1)NC12CC3CC(CC(C3)C1)C2 (configuration not stated) | 1%
CCCOC(=O)C(C)n1cnc2sc(C)c(C)c2c1=O (configuration not stated) | 2%
COc1cccc(COc2ccccc2C2Nc3ccc(Br)cc3C(=O)N2NC(=O)c2ccncc2)c1 (configuration not stated) | -4%
C=CC1=C(C)/C(=C/c2[nH]c(Cc3[nH]c(/C=C4\NC(=O)C(C)=C4C=C)c(C)c3CCC(=O)O)c(CCC(=O)O)c2C)NC1=O | -19%
c1ccc2c(c1)CCCN2c1nc2ccccc2n2cnnc12 | -21%
COc1ccc(N2CCN(C(=O)CN(Cc3ccccc3)S(C)(=O)=O)CC2)cc1 | -11%
O=C(CN1CCOCC1)NCCC12CC3CC(CC(C3)C1)C2 | -13%
Cc1cc(NC(=O)CCC(=O)N(c2ccccc2)C(C(=O)NC2CCCC2)c2ccccc2)no1 (configuration not stated) | -6%

HPGD inh, hit marks shown above.
SMILES | HPGD inh
CCCCCC(=O)NC(=S)Nc1cccc(C(C)=O)c1 | 14µM*
O=c1oc2ccccc2c(NCc2ccccc2)c1[N+](=O)[O-] | 25µM*

(continued)
SMILES | HPGD inh
CCC1=C(OC(=O)N(CC)CC)N2C(=O)OC(=NCC(=O)OC)[C@]2(C)[C@H]2C1=CC[C@H]1C(=O)NC(=O)[C@H]12 | 0%
COc1cccc(NC(=O)CCCn2c(=S)[nH]c3ccccc3c2=O)c1 | -14%
CCc1ccc(C2NC(C(=O)O)CS2)cc1 (configuration not stated) | -18%
Cc1cccc(C=Nc2ccc3c(c2)oc2ccccc23)c1O | ?
CCN(CC)C(=O)Nc1ccc(C(=O)OC)cc1 | -3%
CC(C)COC(=O)C(C#N)c1nc2ccccc2nc1N1CCN(Cc2ccccc2)CC1 (configuration not stated) | -15%
CC(=O)c1cnc2c(C(=O)O)cnn2c1C | -22%
O=C(NCc1ccccn1)Nc1cccc(NC(=O)NCc2ccccn2)c1 | 1%
CC(NC(=O)C1CCC(=O)N1Cc1ccc(F)cc1)c1ccc2c(c1)OCCO2 (configuration not stated) | -10%
Cc1cccc2nc(CSc3nnc4ccccn34)cn12 | 2%
COc1nc(OC)nc(N2CCC(C(=O)NCc3ccco3)CC2)n1 | -7%
O=C(O)CCc1nc(-c2ccccc2Cl)no1 | -29%
CCCC1(C(=O)OC)NC(c2ccc(OC)c(OC)c2)C2C(=O)N(c3ccc4c(c3)OCO4)C(=O)C21 (configuration not stated) | -10%
O=C(COC(=O)CCSc1ccccc1)NCc1ccccc1Cl | 18µM*
Cc1ccc(-c2nc3cc(NC(=O)C(C)C)ccc3o2)cc1 | ?
OCC(O)C(O)C(O)C(O)C(O)CO (configuration not stated) | -8%
O=C(NCCc1cccs1)C1CC(c2c(Cl)cccc2Cl)=NO1 (configuration not stated) | 14µM*
CN1CCN(c2ccc([N+](=O)[O-])cc2NC(=O)c2ccccc2Cl)CC1 | -16%
Cc1ccc(-c2nnc3ccc(SCC(=O)N4CCc5ccccc54)nn23)cc1 | ?
CCCCCc1c(C)nc(N2CCc3ccccc3C2)[nH]c1=O | -20%

Some of these compounds in order of the HPGD inh value, largest number first:
Compound | HPGD inh
O=C(NCc1ccccn1)Nc1cccc(NC(=O)NCc2ccccn2)c1 | 1%
CCN(CC)C(=O)Nc1ccc(C(=O)OC)cc1 | -3%
COc1nc(OC)nc(N2CCC(C(=O)NCc3ccco3)CC2)n1 | -7%
CCCCCc1c(C)nc(N2CCc3ccccc3C2)[nH]c1=O | -20%

Back to the main list, repeating the 2 entries before the break.
SMILES | HPGD inh
Cc1ccc(-c2nnc3ccc(SCC(=O)N4CCc5ccccc54)nn23)cc1 | ?
CCCCCc1c(C)nc(N2CCc3ccccc3C2)[nH]c1=O | -20%
Cc1cccc(N2CSC3=C(C#N)C(c4ccc(C)o4)CC(=O)N3C2)c1 (configuration not stated) | 8.9µM*
O=C(Nc1cnn(Cc2ccc(Cl)cc2)c1)c1ccc([N+](=O)[O-])cc1 | -13%
COc1ccc(OC)c(-n2nnnc2SCC(=O)Nc2nc(C)c(C)s2)c1 | -14%
O=C(CSc1nc2ccccc2c(=O)n1-c1ccc(F)cc1)Nc1ccc(Cl)c(S(=O)(=O)N2CCOCC2)c1 | -13%
CCc1cc(C(=O)OC)c(NC(=O)CC2Nc3cc(C)c(C)cc3NC2=O)s1 (configuration not stated) | 3%
COc1ccc2c(C)cc(SCC(=O)Nc3c(C)n(C)n(-c4ccccc4)c3=O)nc2c1 | -7%
CN(C(=O)COC(=O)COc1ccccc1F)C1CCS(=O)(=O)C1 (configuration not stated) | -6%
O=C(Cn1nnc(-c2ccccc2)n1)OC1CCOC1=O (configuration not stated) | -14%
COc1ccc(-c2cn3c(C)c(C(=O)Nc4ccncc4)sc3n2)cc1 | ?
CCCc1c(C)nc2c(Br)cccc2c1Cl | -6%
Cc1ccc2[nH]c(=O)c(CN(CC3CCCO3)S(=O)(=O)c3c(C)ccc4nsnc34)cc2c1 (configuration not stated) | -8%
COc1cc(C2CC(=O)c3cnc(N4CCN(Cc5ccccc5)CC4)nc3C2)cc(OC)c1OC (configuration not stated) | ?
CC(=O)c1ccc(OCC(O)COc2ccc(C(C)=O)cc2)cc1 | -9%
CCn1c(=O)c(C(=O)Nn2c(C)nc3ccccc3c2=O)c(O)c2ccccc21 | -16%
O=C(NCCN1C(=O)S/C(=C\c2ccccc2)C1=O)C1CCN(S(=O)(=O)c2cccs2)CC1 | -26%
COc1cccc(N(C(=O)CCl)C(C(=O)NCCc2ccccc2)c2cccs2)c1 (configuration not stated) | -15%
O=S(=O)(NCCOc1cccc2cccnc12)c1ccc(F)cc1 | -15%
Nc1n[nH]c2c1C1(CCCC1)Cc1ccccc1-2 | -17%
COc1ccc(OCCC(=O)NC2=NCCS2)cc1 | -13%
CCCc1noc2c1/C(=N\O)CCC2 | -17%
COc1ccc(-n2c(Cn3c(=O)sc4ccccc43)nnc2SCC(=O)N2CCOCC2)cc1 | -5%
CN1CCN(c2nc(N3CCN(CCO)CC3)nc3ccccc23)CC1 | -18%
CC1CCN(c2c([N+](=O)[O-])c(=O)n(-c3ccccc3)c3ccccc23)CC1 | -8%
CCOC(=O)C1CCN(C(=S)Nc2cc(OC)c(OC)cc2C(=O)OC)CC1 | -7%
Cc1cc(-n2nc(C)cc2C)n2nc(C)c(-c3ccccc3)c2n1 | 0%
COc1ccc(NC(=O)C(c2cc3c(cc2[N+](=O)[O-])OCO3)N(C)Cc2ccccc2)cc1 (configuration not stated) | -10%
CCC(C)n1c(SCC(=O)Nc2cc(C)on2)nc2ccccc2c1=O (configuration not stated) | -9%
Clc1ccc(-c2csc(N3CCN(c4ccccc4)CC3)n2)cc1 | 1%
O=C(CCC(=O)OCC(=O)c1ccc([N+](=O)[O-])cc1)NC1CCCCC1 | -20%
N#C/C(=C/c1ccc(F)cc1)c1nc(CCN2C(=O)c3ccccc3C2=O)cs1 | -23%
Cc1ccc(-c2nnc(C)c(N3CC(C)OC(C)C3)n2)cc1 (configuration not stated) | -16%
C=CCN1C(=O)C(Cc2ccc(OCC)cc2)S/C1=N\N=C\c1cccs1 (configuration not stated) | -13%
Cc1cc(C)c(C)c(S(=O)(=O)Nc2ccccc2C(=O)O)c1C | ?
Cn1c(=O)c2cc(S(=O)(=O)N3CCN(c4cccc(C(F)(F)F)c4)CC3)ccc2n(C)c1=O | ?
COc1ccccc1NC(=O)N(c1c(N)n(Cc2ccccc2)c(=O)[nH]c1=O)C1CCCC1 | -9%
CCOC(=O)c1ccccc1NC(=O)c1ccccc1SC | -11%
COc1ncnc(OC)c1NC(=O)c1ccc(F)cc1 | -18%
COc1cc(OC)cc(C(=O)Nc2ccc(S(=O)(=O)N(C)C)cc2)c1 | -9%
Clc1cccc(CON/C=N/c2ncnc3sccc23)c1 | -18%
Cc1cc(C(F)F)n2ncc(C(=O)N3CCCCC3)c2n1 | 11µM*
Cc1c(NC(=O)C(C)OC(=O)c2cc(Cl)nc(Cl)c2)c(=O)n(-c2ccccc2)n1C (configuration not stated) | -6%
Cc1csc(NC(=O)c2nc3nccc(C)n3n2)n1 | -4%
CC1CCCN(c2nc3ccsc3c(=O)s2)C1 (configuration not stated) | ?

Some of the compounds tested, so the mix of outcomes need not match the whole.
